miR-21 FLuc – raises the signal of a miR-21 reporter | Potency, µM (doses to about 38.3 µM), inactives show at the highest dose reporter change, positive = more light | HeLa miR-21 FLuc reporter, luciferase, 48 h | 340,000 tested, under 10 active; active = well fitted rising curve with a large enough effect; inconclusive = small, poorly fitted or top-dose-only effect; inactive = no such curve, though single readings can be large or run the other way;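 note: % of control where 0% means no effect; miR-21 action dims this reporter so a rising signal means less miR-21 action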
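Using DMEM plus 10% FBS, HeLa miR-21-FLuc cells are incubated with test compounds (final up to about 40uM) for 48 hours; firefly luciferase signal is then imaged following reagent-mediated lysis.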
Active calls of the source: *; u = inconclusive. Some of the compounds tested; the hit share may differ from the screen's.

SMILES	miR-21 FLuc
CCN(CC)C(=O)c1c(NC(=O)c2ccccc2F)sc2c1CCC(C(C)(C)C)C2 (stereo not drawn)	8.7%
CCC1CCCCN1C(=O)Cn1c(=O)cc(C(F)(F)F)c2c(C)nn(C)c21 (stereo not drawn)	8.3%
COC(=O)c1ccccc1NC(=O)c1ccc2c(c1)CCN2S(=O)(=O)c1ccc(C)cc1	1.9%
COc1ccccc1CNS(=O)(=O)c1ccc(N2CCCCS2(=O)=O)cc1	5.8%
CNC(=O)C1CCC(Cn2c(=O)c3sccc3n(CC(=O)NCc3ccc(F)cc3)c2=O)CC1 (stereo not drawn)	-0.1%
O=C(CSCc1ccc(F)cc1)N1CCN(c2ccc(Cl)cc2)CC1	2.9%
CCN(CCCNC(=O)c1cc2cc3ccc(C)cc3nc2s1)c1ccccc1	-12.0%
COc1cccc(OCCn2c(-c3ccc(Br)cc3)nc3ccccc3c2=O)c1	0.3%
CCCN1C(C(=O)c2ccccc2)=C(OC(=O)COc2ccc(C)cc2)c2ccccc2S1(=O)=O	u
Cc1ccc(S(=O)(=O)c2nnn3c2nc(NCc2ccc4c(c2)OCO4)c2sccc23)cc1C	-4.5%

4 of the compounds above, field by field:
> O=C(CSCc1ccc(F)cc1)N1CCN(c2ccc(Cl)cc2)CC1
- miR-21 FLuc: 2.9%
> CCN(CCCNC(=O)c1cc2cc3ccc(C)cc3nc2s1)c1ccccc1
- miR-21 FLuc: -12.0%
> COc1cccc(OCCn2c(-c3ccc(Br)cc3)nc3ccccc3c2=O)c1
- miR-21 FLuc: 0.3%
> CCCN1C(C(=O)c2ccccc2)=C(OC(=O)COc2ccc(C)cc2)c2ccccc2S1(=O)=O
- miR-21 FLuc: u

Continuation:
SMILES	miR-21 FLuc
COc1ccc2c(c1)CC(NC(=O)Nc1ccc(NC(C)=O)cc1)CO2 (stereo not drawn)	-2.9%
Cc1cccc(C(C)C)c1NC(=O)C(NS(=O)(=O)c1cccc2nsnc12)c1ccccc1 (stereo not drawn)	7.8%
CCCS(=O)(=O)c1nc(S(=O)(=O)c2ccc(C)cc2)c(NC(C)c2ccccc2)s1 (stereo not drawn)	0.4%
COc1cccc(-c2cc(C(F)(F)F)n3nc(-c4ccc(C)cc4)cc3n2)c1	-0.8%
Cc1ccccc1NC(=O)CCn1cnc2onc(-c3ccc(F)cc3)c2c1=O	21.6%
CCSc1ncc(Cl)c(C(=O)Nc2c(C(=O)c3ccccc3)oc3ccccc23)n1	-1.1%
CCn1c(=O)cc(SCC(=O)NCc2cccc(Cl)c2)c2ccccc21	u
CCOc1ccc(NS(=O)(=O)c2ccc3[nH]cc(C(=O)NC4CCCC4)c(=O)c3c2)cc1	-0.5%
COc1cccc(Nc2cc(C)nc3nc(-c4ccc(Cl)cc4)nn23)c1	-8.0%
Cc1cccc(-c2nc(SCc3cc(=O)c4c(C)cc(C)cc4[nH]3)n[nH]2)c1	9.3%
Cc1ccc(Cn2c(C(=O)O)c(CNCc3ccc(C)o3)c3ccc(C)cc32)cc1	9.7%
Cc1ccc(CNC(=O)c2ccc(Cn3c(=O)c4ccccc4n(CC(=O)Nc4c(C)cc(C)cc4C)c3=O)cc2)cc1	-3.7%
COC(=O)c1ccc(NC(=O)CN(CCc2ccccc2)S(=O)(=O)c2ccc(OC)cc2)cc1	27.0%
CCOC(=O)C1(Cc2cccc(Cl)c2)CCCN(C(=O)CCN2CCCC2=O)C1 (stereo not drawn)	-16.8%
COc1cc(OC)c(C2Nc3c(C)cccc3-c3cc(C)nn32)cc1OC (stereo not drawn)	2.1%
CCc1ccc(C(=O)NC2=NC(c3cc(OC)ccc3OC)CC(=O)N2)cc1 (stereo not drawn)	-0.9%
Cc1ccc(CNC(=O)c2c(-c3cccc(Br)c3)noc2C)o1	4.7%
Cc1noc(/C=C/c2ccco2)c1S(=O)(=O)N1CCC(C(=O)Nc2ccc(F)cc2F)CC1	2.6%
CCOc1ccc(-c2nonc2NC(=O)c2oc3c(C)c(C)ccc3c2C)cc1OCC	-8.8%
Cc1cc(C)cc(NC(=O)Cn2nnc(C(=O)Nc3cc(C)cc(C)c3)c2N)c1	1.5%
CCC(=O)N1c2ccccc2CC1C(=O)N1CCN(c2cccc(Cl)c2)CC1 (stereo not drawn)	-1.4%
COc1ccc(NC(=O)C2CCC(CNS(=O)(=O)c3csc(C(N)=O)c3)CC2)cc1 (stereo not drawn)	-5.1%
Cc1ccc(C)c(N2CCN(C(=O)C3CCC(CNS(=O)(=O)c4cccs4)CC3)CC2)c1 (stereo not drawn)	u
Cc1ccccc1C(=O)Nc1nnc(S(=O)(=O)N(C)Cc2ccccc2)s1	0.8%
O=C(Nc1ccc2nc(SCC(=O)N3CCCC3)sc2c1)c1ccc(Br)cc1	-3.2%
Cc1c(C)c2c(cc(C)c3c(-c4ccccc4)coc32)oc1=O	-0.3%
COc1ccc(CNS(=O)(=O)c2ccc(C(=O)N(C)C)s2)cc1	-2.6%
Cc1nn(CC(=O)NC2CCCCC2)c(=O)c2cc3cc(F)ccc3n12	-1.0%
Cc1ccc(NC(=O)Cn2cc(S(=O)(=O)N3CCCC3)c(S(=O)(=O)N3CCCC3)c2)cc1C	-6.3%
CCOc1cc(CNC(=O)c2ccc3nc(CCc4ccccc4)oc3c2)ccc1OC	-16.3%
CCOc1ccc(CNC(=O)c2ccc(NC(=O)N3CCCCc4ccccc43)cc2)cc1	-7.3%
COc1cc(C(=O)NCCSc2c(C)[nH]c3ccccc23)cc(OC)c1OC	1.1%
CCc1nc2nc(C)cc(Nc3cc(Cl)ccc3OC)n2n1	-2.3%
Cc1ccc2nc(NC(=O)CSc3ncc(C(=O)Nc4ccc(F)cc4)c(=O)n3C)sc2c1	-12.1%
COc1ccc(-c2[nH]c3ccccc3c2SCCNC(=O)c2ccc(S(=O)(=O)N(C)C)cc2)cc1	u
Cc1cccc(CCNC(=O)c2ccc3c(c2)nc2n3CCC(C)C2)c1 (stereo not drawn)	-30.7%
COC(=O)c1ccccc1NC(=O)CSc1nc2ccsc2c(=O)n1CCC(C)C	-1.2%
CCOc1ccc(N2CC(c3nc4ccccc4n3CCCOc3ccccc3OC)CC2=O)cc1 (stereo not drawn)	19.0%
COCCCNC(=O)c1c(NC(=O)c2cc(=O)c3cc(C)c(C)cc3o2)sc2c1CCCC2	-6.4%
Cc1ccc(NC(=O)CN2C(=O)c3ccccc3Sc3ccc(C(=O)N4CCCC4)cc32)cc1	1.7%

Arranged by value in miR-21 FLuc (falling): 4 of the compounds above
SMILES	miR-21 FLuc
Cc1ccc(NC(=O)CN2C(=O)c3ccccc3Sc3ccc(C(=O)N4CCCC4)cc32)cc1	1.7%
COC(=O)c1ccccc1NC(=O)CSc1nc2ccsc2c(=O)n1CCC(C)C	-1.2%
COCCCNC(=O)c1c(NC(=O)c2cc(=O)c3cc(C)c(C)cc3o2)sc2c1CCCC2	-6.4%
CCOc1ccc(CNC(=O)c2ccc(NC(=O)N3CCCCc4ccccc43)cc2)cc1	-7.3%

Further structures
SMILES	miR-21 FLuc
CCc1ccc(CNC(=O)c2ccc(NC(=O)N3CCSc4ncccc43)cc2)cc1	0.3%
COc1ccc(S(=O)(=O)NCC(c2ccco2)N2CCOCC2)cc1C (stereo not drawn)	-0.1%
COC(=O)c1ccc(Cn2c(=O)cc(C)c3c(C)nn(C)c32)cc1	5.8%
CC1=C(C(=O)NCc2cccc(F)c2)C2(CCCCCC2)OC1=O	0.8%
O=C(COc1ccccc1)Nc1ccc2nc(SCCOc3ccccc3)sc2c1	-11.3%
COC(=O)c1ccccc1NC(=O)c1cc2ccccn2n1	-18.8%
CCOC(=O)c1ccc(NS(=O)(=O)c2ccc3c(c2)CCN3C(=O)CC)cc1	-2.1%
CCOc1ccc(OCC)c(NC(=O)CC(C)n2nc(C)cc2C)c1 (stereo not drawn)	2.3%
Cc1ccccc1-c1noc(CSc2nc(-c3ccc(F)cc3)cc(=O)[nH]2)n1	-9.5%
Nc1nn(-c2ccccc2)nc1C(=O)OCc1ccc(Cl)cc1	3.1%

Single entries from above.
miR-21 FLuc with COc1ccc(S(=O)(=O)NCC(c2ccco2)N2CCOCC2)cc1C (stereo not drawn) reads -0.1%
miR-21 FLuc with CCOC(=O)c1ccc(NS(=O)(=O)c2ccc3c(c2)CCN3C(=O)CC)cc1 reads -2.1%

More structures:
SMILES	miR-21 FLuc
CCc1ccc(NC(=O)c2cnn(-c3ccccc3)c2-n2cccc2)cc1	4.4%
Cc1oc2c(cc(NS(=O)(=O)c3ccc(Br)cc3)c3ccccc32)c1C(=O)OCc1ccccc1	-3.8%
Cc1ccc(N(CC(=O)Nc2ccc(C)c(F)c2)S(=O)(=O)c2c(C)n[nH]c2C)cc1	10.6%
Cc1cccc(NC(=O)CSc2nc3c(sc4ccccc43)c(=O)n2CCCC(=O)NC2CCCC2)c1	10.3%
CCOc1ccc(CNC(=O)CCCn2c(=O)c3cccn3c3ccccc32)cc1	22.8%
Cc1ccccc1-c1nc(CS(=O)(=O)CC(=O)N2CCN(c3ccccc3)CC2)c(C)o1	15.8%
CCOc1ccccc1CNS(=O)(=O)c1ccc2[nH]c(=O)ccc2c1	-10.0%
CCn1c(=O)cc(SCC(=O)NCCc2cc(OC)ccc2OC)c2ccccc21	-0.4%
Cc1cccc(-n2cc(-c3ccccc3)c3c(N4CCC(C)CC4)ncnc32)c1	-5.0%
CNC(=O)C1CCN(C(=O)N2CC(C)Oc3ccc(Cl)cc32)CC1 (stereo not drawn)	-1.0%
COc1ccc(CNc2ncnc3c2cnn3-c2ccc(Cl)cc2)cc1	-31.9%
COc1ccccc1CNc1ncnc2c1c(-c1ccccc1)cn2-c1cccc(C)c1	1.1%
Cc1ccc(CCNC(=O)c2ccc3c(c2)N(Cc2cc(C)ccc2C)C(=O)c2ccccc2S3=O)cc1 (stereo not drawn)	5.5%
CCCSc1nc2c([nH]c3ccccc32)c(=O)n1C	8.1%
CCOc1ccc(Nc2nc3ccccc3n3c(CC)nnc23)cc1	2.7%
CCS(=O)(=O)N1CCc2cc(C(=O)N3CCN(c4ccccc4)CC3)ccc21	4.9%
CCOc1ccc(-n2c(=O)c3c4c(sc3n(CC(=O)NC(C)CC)c2=O)CCCCC4)cc1 (stereo not drawn)	2.0%
CSc1ccc(CC2C(=O)Nc3ccccc32)cc1 (stereo not drawn)	-21.9%
O=C(NCc1ccc2c(c1)CCN2C(=O)c1ccccc1)Nc1cccc(C(F)(F)F)c1	11.6%
COc1ccc(OC)c(CCNC(=O)c2csc3c2CCCCC3)c1	18.5%
CC1Cc2ccccc2N1C(=O)CSc1nnc(-c2ccccc2Cl)o1 (stereo not drawn)	3.9%
Cc1ccc(-c2nn3c(=O)cc(CN4CCN(C(=O)Nc5cc(Cl)ccc5C)CC4)nc3s2)cc1	-3.3%
COc1ccc(NC(=O)c2cnc[nH]2)cc1	6.0%
COc1ccc(N2CCN(C(CNC(=O)C(=O)NCc3ccc(C)cc3)c3cccnc3)CC2)cc1 (stereo not drawn)	-1.6%
Cc1cccc(NC(=O)c2cc(-c3ccc4c(c3)OCCO4)on2)c1	-6.6%
COCCCNC(=O)c1sc2nc(C)c(C(=O)Nc3ccc(C)cc3C)c(-c3ccc(Cl)cc3)c2c1N	23.9%
Cc1cccc(Nc2nn3c(=O)c4cc5c(cc4nc3s2)OCO5)c1	-23.1%
CC(C)Oc1ccc(C(=O)Nc2nonc2-c2ccc(OC(C)C)cc2)cc1	4.4%
COc1ccc2nc(N(Cc3cccnc3)C(=O)c3ccc(Cl)cc3)sc2c1	-8.3%
COc1ccc(C(=O)CC2(O)C(=O)N(Cc3ccccc3)c3ccc(Br)cc32)cc1 (stereo not drawn)	13.0%
Cc1cc(C)cc(NS(=O)(=O)c2ccc3c(c2)NC(=O)C(C)S3)c1 (stereo not drawn)	-34.9%
CCOc1ccccc1CNC(=O)c1ccc(-n2c(C)cc3c2CCC(C)C3)cc1 (stereo not drawn)	25.4%
Cc1cc(=O)n(Cc2c(F)cccc2Cl)c2c1c(C)nn2C	-8.7%
Cc1ccccc1Cn1c(CN2CCC(C(=O)NCCN(C)C)CC2)cc2ccccc21	-1.3%
Cc1ccc2c(c1)C(c1ccccc1)N(C(=O)c1ccccc1F)CC(=O)N2 (stereo not drawn)	22.4%
COc1ccc(C(=O)c2cn(Cc3ccccc3F)c3cc4c(cc3c2=O)OCCO4)cc1OC	-20.8%
COc1cc(Cl)c(NS(=O)(=O)c2ccc3[nH]c(=O)ccc3c2)c(OC)c1	-0.7%
COc1ccc(CCNC(=O)c2ccc3c(c2)N(Cc2cc(C)ccc2C)C(=O)c2ccccc2S3=O)cc1OC (stereo not drawn)	14.5%
Cc1ccc(-c2nc3ccccn3c2Nc2ccc3c(c2)OCO3)o1	-22.5%
Cc1ccc(S(=O)(=O)c2cn(Cc3cccc(C)c3)c3cc4c(cc3c2=O)OCO4)cc1	-1.5%
CC(=O)c1cc(-c2ccc(F)cc2)n(CC(=O)NC(C)c2ccccc2)c1C (stereo not drawn)	0.2%
CCOC(=O)c1c(C)n(-c2ccc(OC)cc2)c2ccc(OC(=O)COc3ccccc3)cc12	-13.5%
Cc1nc(S(=O)(=O)N2CCN(c3cccc(Cl)c3)CC2)cn1C	-25.1%
CC(C)(C)OC(=O)N1CCC(c2c(C(=O)N3CCN(c4ncccn4)CC3)cnn2-c2ccc(F)cc2)CC1	1.8%
CCOc1ccc(C(=O)N(Cc2cc(OC)c(OC)c(OC)c2)c2ccccn2)cc1	1.8%
COC(=O)c1ccc(NC(=O)Cn2cnc3c2c(=O)n(C)c(=O)n3C)cc1	-4.4%
COc1ccc(CN(C)S(=O)(=O)c2nnc(NC(=O)C(C)C)s2)cc1OC	16.8%
Cc1ccc(C)c(Cn2c(=O)n(CC3CCC(C(=O)N4CCOCC4)CC3)c(=O)c3sccc32)c1 (stereo not drawn)	2.4%
O=C(Nc1ccc(F)cc1)c1ccc(-n2cnnc2)cc1	-12.1%
COc1cc(C2CC(=O)N(c3ccccc3)C3=C2C(=O)OC3)cc(OC)c1OC (stereo not drawn)	-3.0%
COc1ccc(C(=O)Nc2cccc(OCc3cc(=O)n4c5c(sc4n3)CCCC5)c2)cc1	-1.0%

Screening data: PubChem BioAssay, National Center for Advancing Translational Sciences (NCATS)
